# Mtb growth: Mycobacterium tuberculosis H37Rv growth inhibition, cell based, confirmatory dose response (AID 1949); most inactive calls were filed without a number and no value below 0 was filed; one-dose inhibition, % at 10 µg/mL; IC50 in µg/mL for titrated hits; actives 1.6% (n = 100,000);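 active = confirmed in a dose series; inconclusive = about 50% or more but not retested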;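 also: bacteria grown 7 days with compound before Alamar blue readout; 0% = untreated bacteria and 100% = reference antibiotic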
# * = called active by the depositor; i = inactive; ? = inconclusive.
Compound	Mtb growth
OC(COc1ccccc1Cl)Cn1nnc2ccccc21 (stereo unspecified)	i
CN(CCc1ccccn1)S(=O)(=O)c1ccc2c3c(cccc13)C(=O)N2	i
COC(=O)Nc1ccc(S(=O)(=O)N2CCC(C)CC2)cc1	i
Cc1sc2ncn(CC(=O)NCCc3ccccc3)c(=O)c2c1-c1ccccc1	i
O=C(O)Cc1ccc(NC(=S)NCc2ccco2)cc1	i
CCOC(=O)C1=C(C)NC(=S)NC1c1ccc(O)c(OCC)c1[N+](=O)[O-] (stereo unspecified)	i
CC12CCC(C(=O)NCc3ccc4c(c3)OCO4)(OC1=O)C2(C)C (stereo unspecified)	i
CC(C)c1ccc(NC(=O)c2ccc(N(C)S(C)(=O)=O)cc2)cc1	i
C=C(C)CC(Nc1ccc(OC)cc1)c1ccco1 (stereo unspecified)	i
COC(=O)c1ccc(COC(=O)c2ccc(NC(=O)c3ccc(OC)cc3)cc2)cc1	i
CCOC(=O)N1CCN(S(=O)(=O)c2ccc(I)cc2)CC1	1%
COc1ccc(N(CC(=O)Nc2cccc(C(C)=O)c2)S(=O)(=O)c2ccc(F)cc2)cc1	3%
COc1ccc2nc(NC(=O)c3ccccc3Oc3ccccc3)sc2c1	i
O=C(O)c1cccc(CSc2ncccn2)c1	i
Nc1nc(Cc2ccsc2)nc2sc3c(c12)CCCC3	i
CC1(C)CC2CC(C)(CN2C(=O)c2ccccc2NC(=O)CCN2C(=O)c3ccccc3C2=O)C1 (stereo unspecified)	i
CCc1ccc(N(CC(=O)N2CCc3ccccc3C2)S(=O)(=O)c2ccccc2)cc1	i
O=C(Nc1ccc(O)cc1)c1ccc2ccccc2c1	i
COc1ccc(N2CCN(C(=O)c3cc([N+](=O)[O-])ccc3N3CCN(C)CC3)CC2)cc1	i
CCOC(=O)CCC(=O)N(CCN(C(=O)CCC(=O)OCC)c1ccccc1)c1ccccc1	i
Cc1cc(OCC(=O)Nc2cccc([N+](=O)[O-])c2C)cc(C)c1Cl	i
O=Cc1ccc(OCc2ccccc2)c(C(=O)O)c1	i
CCOC(=O)c1c(NC(=O)C(c2ccccc2)c2ccccc2)sc(C(=O)N(CC)CC)c1C	i
OCCNCCOc1ccc(Br)cc1Cl	i
CCOc1ccc(S(=O)(=O)Nc2cccnc2)cc1	i

# The list goes on; the last six above are carried over.
Compound	Mtb growth
CCOC(=O)CCC(=O)N(CCN(C(=O)CCC(=O)OCC)c1ccccc1)c1ccccc1	i
Cc1cc(OCC(=O)Nc2cccc([N+](=O)[O-])c2C)cc(C)c1Cl	i
O=Cc1ccc(OCc2ccccc2)c(C(=O)O)c1	i
CCOC(=O)c1c(NC(=O)C(c2ccccc2)c2ccccc2)sc(C(=O)N(CC)CC)c1C	i
OCCNCCOc1ccc(Br)cc1Cl	i
CCOc1ccc(S(=O)(=O)Nc2cccnc2)cc1	i
CCC(C)NC(=O)NCc1ccccc1Cl (stereo unspecified)	i
Cc1ccc(-c2ccc(S(=O)(=O)N3CCCCC3C)cc2)cc1 (stereo unspecified)	3%
CCOC(=O)C1=NNC(C(=O)c2ccccc2)C1c1ccccc1 (stereo unspecified)	i
CC(C)(C)c1ccc(C(=O)Nc2nsc(-c3ccc(Cl)cc3)n2)cc1	i
COc1ccc2[nH]c(=O)c(C=O)cc2c1	i
CC(=O)Nc1cc(C(=O)Nc2ccc(Br)cc2)ccc1C	i
CN(C)C(=O)c1ccc(N(Cc2ccc(Cl)cc2)S(C)(=O)=O)cc1	i
CSc1ccc(S(=O)(=O)NCCc2ccccc2)cc1	27%
COc1ccc(-c2noc(-c3ccccc3[N+](=O)[O-])n2)cc1	i
Cc1sc(NC(=O)c2ccccc2)c(C(=O)N2CCN(C)CC2)c1C	i
CC(=O)N1c2c(ccc3ccccc23)C(C)CC12CCCCC2 (stereo unspecified)	11%
CC(=O)Nc1ccc(NC(=O)COc2ccc(C)cc2C)cc1	1%
O=c1[nH]c2ccc(NS(=O)(=O)c3ccc(Br)s3)cc2[nH]1	0%
CN(C)C(=O)Nc1ccc2c(c1)nnn2C	i
COc1ccc(OC(C)C(=O)Nn2cnnc2)cc1 (stereo unspecified)	i
C=CCc1cccc2cc(C(=O)N3CCN(c4ccccn4)CC3)c(=O)oc12	i
CS(=O)(=O)N(Cc1ccc(Cl)cc1)c1ccc(C(=O)N2CCCCCC2)cc1	i
COc1ccc(-c2csc(N3CCOCC3)n2)cc1	4%
CCn1c(COc2ccccc2)nnc1SCC(=O)Nc1nc(-c2ccc(Br)cc2)cs1	i
CCn1c(SCC(=O)Nc2cc(C)c(C)cc2Br)nnc1-c1ccccc1C	i
Cc1nn(C(=O)C2CCCCC2)c(C)c1Sc1ccccc1[N+](=O)[O-]	i
O=C(Nc1ccc(O)cc1)C1CCCN1S(=O)(=O)c1ccc(F)cc1 (stereo unspecified)	i
Cc1occc1C(=O)Nc1nc(C23CC4CC(CC(C4)C2)C3)cs1	4%
Cc1cc(C)nc(NS(=O)(=O)c2ccc(NC(=O)c3ccc(C)c([N+](=O)[O-])c3)cc2)n1	i
COC(=O)C1=C(C)NC2=C(C(=O)CC(c3cccs3)C2)C1c1ccc(N(C)C)cc1 (stereo unspecified)	i
O=C(COc1cc(Cl)c(Cl)cc1Cl)Nc1ccc(F)cc1F	i
CC(C)Nc1ncnc2ccc(I)cc12	i
CCOC(=O)NC(Nc1ccc(F)cc1)C(Cl)(Cl)Cl (stereo unspecified)	1%
Cc1cc(C)nc(NC2=NCC(=O)N2c2cc(Cl)cc(Cl)c2)n1	43%
CC(C)CN1C(=O)c2ccc(C(=O)NCc3ccc(C(=O)O)cc3)cc2C1=O	i
O=C(Cn1cnc2ccccc21)N/N=C/c1ccccc1O	i
CCCC(=O)Nc1cc(-c2nn(C)c(=O)c3ccccc23)ccc1N1CCCCC1	?
CCc1cccc(OCCCn2ccnc2)c1	i
O=C(Nc1ccc2c(c1)OCO2)c1cc(-c2ccccc2Cl)nc2ccccc12	i
CCOc1cc(C(=O)Nc2ncccc2Cl)cc(OCC)c1OCC	i
Cc1ccc(Cc2nc(-c3ccncc3)no2)cc1	i
O=C(COc1ccc2ccccc2c1)Nc1ccc(F)c(Cl)c1	i
Cc1ccc(C(C)(C)C)c(OCCCn2ccnc2)c1	3.9µg/mL*
CS(=O)(=O)N1CCC(C(=O)Nc2ccc(C(F)(F)F)cc2)CC1	i
COc1cc(C(=O)N2CCN(C34CC5CC(CC(C5)C3)C4)CC2)cc(OC)c1OC	i
C=CCc1cc(C)ccc1OCCCCN1CCN(C)CC1	i
COc1ccc(NC(=O)C2=C(C)NC3=C(C(=O)CC(c4ccc(OC)c(OC)c4)C3)C2c2ccsc2)cc1 (stereo unspecified)	i
CCc1cc(=O)oc2c(C)c(OCC(C)=O)ccc12	i
COc1ccc(CCNC(=S)Nc2cccc(C)c2C)cc1	i
COC(=O)CC(=O)CSc1nc(-c2cccs2)cc(C(F)(F)F)c1C#N	i
CC(C)(C)C(=O)CSc1nc2ccccc2c(=O)n1Cc1ccco1	i
COc1ccc(NC(=S)N2CCN(Cc3ccc4c(c3)OCO4)CC2)c(OC)c1	i
CCc1c(C)c2ccc(OCC(=O)c3cccc(OC)c3)cc2oc1=O	i
CCCn1nnc(NC(=S)NC(=O)c2cc(C)cc(C)c2)n1	i
CCOc1ccc(N2CC(C(=O)Nc3ccccc3C(C)C)CC2=O)cc1 (stereo unspecified)	i

# Other compounds follow:
Compound	Mtb growth
COc1cccc(NC(=O)Nc2cccc(C)n2)c1	2%
COc1cc(CN2CCN(Cc3ccccc3Cl)CC2)cc2c1OCO2	i
CCC(=O)Nc1cccc(Cl)c1N1CCN(CC)CC1	i
Cc1cc(OCC(=O)NCc2ccc(Cl)cc2)cc(C)c1Br	4%
O=C(NCc1cccs1)C(Sc1ccccc1)c1ccccc1 (stereo unspecified)	i
O=S(=O)(c1cccc2cccnc12)N1CCCCC1	6%
COc1ccc(NC(=O)Nc2ccc(Br)cn2)cc1OC	i
CCc1sc(C(=O)Nc2ccon2)cc1Br	1%
Cc1cc(SCC(=O)Nc2ccc(Br)cc2)nc2ccccc12	i
Cc1ccc(O)c(NC(=O)c2nc3ncccn3n2)c1	i
COC(=O)CC(c1ccccc1)N1C(=O)c2ccccc2C1=O (stereo unspecified)	2%
CCOCCCNC(=O)Cc1cccs1	i
O=C(O)c1cccc(S(=O)(=O)Nc2ccccc2Cl)c1	i
O=C(Nc1cccc(F)c1)C1CCN(C(=O)c2ccc(F)cc2)CC1	11%
O=C(c1ccc(F)cc1)N1CCC(C(=O)N2CCN(c3cccc(Cl)c3)CC2)CC1	2%
COc1ccc(/C(N)=N/OC(=O)CC2CCCCC2)cc1	i
Cc1ccc([N+](=O)[O-])cc1S(=O)(=O)Nc1ccc(O)cc1	2%
CC1(C)Cc2c(c(N3CCOCC3)nc3sc4c(NCCc5ccccc5)ncnc4c23)CO1	i
COc1ccc(C(=O)O)cc1NC(=S)NC(=O)c1ccc(C(C)(C)C)cc1	7%
COc1ccccc1NC(=O)c1cn(-c2ccccc2)nc1-c1ccc([N+](=O)[O-])cc1	i
CCc1cccc(C)c1NC(=O)c1cc(I)ccc1Cl	i
C=CCn1c(C2CC(=O)N(c3cccc4ccccc34)C2)nc2ccccc21 (stereo unspecified)	i
Cc1c(O)ccc2c3c(c(=O)oc12)CCCC3	14%
CCCC(=O)Nc1ccc(-c2nc3cc4ccccc4cc3[nH]2)cc1	i
CC(Oc1cccc(Cl)c1)C(=O)Nc1ccccc1C(N)=O (stereo unspecified)	12%

# A few values from the list:
# COc1ccc(C(=O)O)cc1NC(=S)NC(=O)c1ccc(C(C)(C)C)cc1 @ Mtb growth = 7%
# O=S(=O)(c1cccc2cccnc12)N1CCCCC1 @ Mtb growth = 6%

# (next part)
Compound	Mtb growth
CCSc1ccccc1C(=O)Nc1ccccc1C(=O)Nc1ccc(OC)cc1	i
CCOc1ccc(NC(=O)CSc2nnc(NC(=O)c3ccccc3Br)s2)cc1	i
CCn1cc(Br)c(C(=O)NC(C)c2ccccc2)n1 (stereo unspecified)	i
CC1(C)Cc2c(sc3nc(SCC(=O)Nc4ccccc4)n(-c4ccccc4)c(=O)c23)CO1	5%
CCN1C(=O)C2C(c3ccccc3O)NC(Cc3c[nH]c4ccccc34)(C(=O)O)C2C1=O (stereo unspecified)	i
N#Cc1ccccc1COC(=O)c1ccc(-c2ccc(C=O)o2)cc1	38%
Cc1cc2c(=O)n(Cc3ccc(Br)cc3)cnc2s1	i
O=C(NC(=S)Nc1ccc(S(=O)(=O)NC2CCCCC2)cc1)c1cccs1	i
Cc1ccccc1OC(=O)OCC(C)C	i
Cc1nnc(SCC(=O)NCC2CCCO2)s1 (stereo unspecified)	i
COC(=O)C(C)Oc1ccc2c(=O)c(-c3ccc(Cl)cc3)coc2c1 (stereo unspecified)	4.2µg/mL*
O=C(c1ccc(CSc2ccccc2)cc1)N1CCCCCC1	i
CC1CN(CCCCOc2ccc3ccccc3c2)CC(C)O1 (stereo unspecified)	3%
S=c1[nH]nc(-c2cc3ccccc3o2)n1Cc1ccccc1	i
Cc1cc(C)c(C#N)c(SCC(O)COc2ccc(Cl)cc2)n1 (stereo unspecified)	3%
CC(=O)C1=C(C)NC2=C(C(=O)c3ccccc32)C1c1ccccc1 (stereo unspecified)	i
O=C(NCc1ccco1)c1cnccn1	i
CN1C(=O)c2ccc(C(=O)Nc3ccc(OC(F)(F)F)cc3)cc2C1=O	i
O=c1c([N+](=O)[O-])c(O)c2ccccc2n1-c1ccccc1	16%
CCc1ccc(Nc2ncnc3ccc(Br)cc23)cc1	4.2µg/mL*
COc1ccc(-c2noc(CN3CCC(C)CC3)n2)cc1	i
CCCCOc1ccc(C(=O)NC(=S)Nc2ccccc2C(C)C)cc1	7%
C=CCOc1ccc(Br)cc1CNC(C)(C)CO	0%
CC12CCC(C(=O)N3CCN(Cc4ccccc4)CC3)(OC1=O)C2(C)C (stereo unspecified)	i
Cc1ccc(Cn2nnc3ccccc32)cc1	i

# Already shown: entries from further up.
Compound	Mtb growth
CC12CCC(C(=O)N3CCN(Cc4ccccc4)CC3)(OC1=O)C2(C)C (stereo unspecified)	i
Cc1ccc(Cn2nnc3ccccc32)cc1	i

# (continued)
Compound	Mtb growth
Cc1nc(SCC(=O)Nc2ccc3ccccc3c2)n[nH]1	20%
C1=C(c2ccc(Oc3ccccc3)cc2)N2CCN=C2S1	5.2µg/mL*
Cc1ccc(S(=O)(=O)N(CC(=O)Nc2cccc([N+](=O)[O-])c2)Cc2cccc(C)c2)cc1	4%
Nc1nc2c(c(C(F)(F)F)n1)CCCC2	i
O=C(OCc1ccc2c(c1)OCO2)c1ccc(S(=O)(=O)N2CCOCC2)cc1	i
CN1C2=C(C(=O)CC(C)(C)C2)C(c2ccc(O)c(Br)c2)C2=C1CC(C)(C)CC2=O	i
O=C(Nc1ccc(Br)cc1)C1CCN(S(=O)(=O)c2ccccc2)CC1	11%
CCN(CC)C(=O)CSc1nc2ccccc2c(=O)[nH]1	3%
COc1ccc(S(=O)(=O)NC2CCCC2)c(Cl)c1Cl	i
CC(=O)Nc1ccc(S(=O)(=O)C(CC(=O)c2ccccc2)c2ccc(N(C)C)cc2)cc1 (stereo unspecified)	8%
CC1CCc2c(sc(NC(=O)c3cnccn3)c2C(=O)OC(C)C)C1 (stereo unspecified)	1%
CN(Cc1ccccc1)S(=O)(=O)c1ccc(OCC(=O)N2CCOCC2)cc1	i
O=C(/C=C/c1ccc(-c2ccc(F)cc2)o1)c1ccc(Cl)cc1	i

# Source: PubChem (Southern Research Institute)

# These rows are one share of the data; the hit share may differ from the screen's.
